Screening data as filed in PubChem.
NS1 function inh = qHTS Assay for Inhibitors of Influenza NS1 Protein Function; S. cerevisiae slowed by influenza A NS1, growth recovery by OD600; Potency, µM (titrated, usually from 46.1 µM), without a hit: at the highest dose activity, positive = more growth; hit rate 0.4% among 270,000; AID 2326, 2010; active means well fitted rising curve with a large enough effect; inconclusive means small, poorly fitted or top-dose-only effect; inactive means no such curve, though single readings can be large or run the other way; further: nearly all actives have a fitted effect of over 50% in size
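OD600 was taken as the measure of yeast growth restored by compound in an NS1-expressing S. cerevisiae strain. Cells had been washed out of glucose medium and diluted 1:100 into galactose -URA medium, pH 6.0.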
Cruzain noTriton = qHTS Assay for Promiscuous and Specific Inhibitors of Cruzain (without detergent); Cruzipain (Trypanosoma cruzi), P25779; purified cruzain, Z-FR-AMC fluorescence, no detergent; Potency, µM, without a hit: max response, negative = inhibition, most hits filed as inhibitors; hit rate 2.3% among 200,000; AID 1476, 2009;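 further: plate controls were enzyme without inhibitor for no effect and buffer without enzyme for full effect; nearly all actives have a fitted effect of over 40% in size; top concentration of the series not given in the record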
Target sequence (P25779 123-467 limits assumed): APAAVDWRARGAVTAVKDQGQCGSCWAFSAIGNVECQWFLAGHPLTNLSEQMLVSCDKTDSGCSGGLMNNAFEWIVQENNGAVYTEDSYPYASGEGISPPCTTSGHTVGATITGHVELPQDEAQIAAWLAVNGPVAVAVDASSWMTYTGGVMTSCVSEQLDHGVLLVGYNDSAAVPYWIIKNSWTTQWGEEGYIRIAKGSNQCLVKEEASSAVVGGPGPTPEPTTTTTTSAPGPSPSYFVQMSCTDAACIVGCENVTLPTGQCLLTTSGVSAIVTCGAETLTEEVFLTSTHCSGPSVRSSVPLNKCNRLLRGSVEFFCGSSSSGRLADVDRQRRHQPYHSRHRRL
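Purified cruzain at 1.5 nM, pre-incubated 15 min with compound at room temperature in 100 mM sodium acetate pH 5.5, 5 mM DTT, 0.00005% Triton X-100. Reaction started with 2 uM Z-FR-AMC; AMC fluorescence increase over 60 s gives rate.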
RE007 growth inh = qHTS Assay for Inhibitors of the HIV-1 protein Vpr; Potency, µM (doses to about 92.2 µM), for inactives: at the highest dose activity change, negative = less growth; AID 651644, 2012; hit rate 0.21% among 360,000; S. pombe RE007 Vpr strain, BacTiter-Glo ATP luminescence, 24 h; control for the full effect not named in the record; active = well fitted falling curve with a large enough effect; inconclusive = small, poorly fitted or top-dose-only effect; inactive = no such curve, though single readings can be large or run the other way;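 further: on the % scale 0 is the no-effect control and ±100 the full control effect; nearly all actives have a fitted effect of over 50% in size; the assay follows cell death caused by Vpr and the record does not say whether a fall means rescue or toxicity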
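Fission yeast strain RE007, carrying one chromosomally integrated HIV-1 vpr copy, was seeded at OD 0.01 in PMG+AL medium with 23 nL pinned compound. After 24 h at 30 °C and 99% humidity, viability was read by BacTiter-Glo luminescence.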
Lassa entry inh = qHTS for Inhibitors of binding or entry into cells for Lassa Virus. AID 540256, 2011. Lassa virus pseudotype entry inhibition, cell reporter; control for the full effect not named in the record. Potency, µM (titrated, usually from 37.9 µM), without a hit: at the highest dose activity change, negative = inhibition, most hits filed as inhibitors. hit rate 1.2% among 300,000; active means well fitted inhibition curve with a large enough effect; inconclusive means small, poorly fitted or top-dose-only effect, or effect the other way; inactive means flat fitted curve, though single readings scatter; tested in HEK293 cells; further: on the % scale 0 is the no-effect control and ±100 the full control effect; nearly all actives have a fitted effect of over 50% in size; luciferase read-out
2A StopGo = High Throughput Screening for Foot and Mouth Disease Virus Antivirals. human cells with a luciferase reporter of 2A StopGo recoding; control for the full effect not named in the record. Potency, µM (series often up to 57.9 µM), inactives show at the top dose signal change, negative = less light. hit rate 1.2% among 410,000; active = well fitted falling curve with a large enough effect; inconclusive = small, poorly fitted or top-dose-only effect; inactive = no such curve, though single readings can be large or run the other way; tested in HEK293T cells; further: on the % scale 0 is the no-effect control and ±100 the full control effect; nearly all actives have a fitted effect of over 45% in size; luciferase light after 4 h
Marburg entry inh = qHTS for inhibitors of binding or entry into cells for Marburg Virus | Marburg virus pseudotyped entry inhibition, cell reporter; control for the full effect not named in the record; about a third of the inactives were read at about 46 µM | Potency, µM (highest dose often 37.8 µM), without a hit: at the top dose activity change, negative = inhibition, most hits filed as inhibitors | hit rate 1.8% among 300,000; active = well fitted inhibition curve with a large enough effect; inconclusive = small, poorly fitted or top-dose-only effect, or effect the other way; inactive = flat fitted curve, though single readings scatter; tested in HEK293 cells; about a fifth of its hits are not listed in these tables; further: on the % scale 0 is the no-effect control and ±100 the full control effect; luciferase read-out
SARS PLpro yeast = qHTS of Yeast-based Assay for SARS-CoV PLP | hit rate 0.19% among 330,000 | S. cerevisiae expressing SARS-CoV PLpro, growth rescue; control for the full effect not named in the record | Potency, µM (doses to about 32.9 µM), without a hit: at the top dose activity, positive = growth rescue; active means well fitted rising curve with a large enough effect; inconclusive means small, poorly fitted or top-dose-only effect; inactive means no such curve, though single readings can be large or run the other way; further: 0% is about no effect; nearly all actives have a fitted effect of over 55% in size; growth read by luminescence after 48 h
Cruzain Triton = qHTS Assay for Promiscuous and Specific Inhibitors of Cruzain (with detergent). Cruzipain (Trypanosoma cruzi), P25779. purified cruzain, Z-FR-AMC fluorescence, 0.01% Triton. Potency, µM, without a hit: max response, negative = inhibition, usual class: inhibitors. hit rate 0.43% among 200,000;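 further: plate controls were neutral wells for no effect and buffer without enzyme for full effect; nearly all actives have a fitted effect of over 40% in size; top concentration of the series not given in the record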
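Cruzain (1.5 nM) preincubated 15 min at RT with compound in 100 mM sodium acetate pH 5.5, 5 mM DTT, 0.01% Triton X-100. Reaction started with 2 uM Z-FR-AMC; AMC fluorescence (ex 360/em 450 nm) change over 60 s gave rate.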
* = called active by the depositor; ? = inconclusive; nt = not tested or not shown; & = joins results of further samples; [ ] = another dose, or the depositor's remark. Unless noted, the call rests on the fitted dose curve; in most records, active means well fitted curve in the direction sought with a large enough effect; inconclusive means small, poorly fitted or top-dose-only effect, or another doubt; inactive means no such curve, though single readings can be large; an effect the other way counts as inactive or inconclusive. Potency means the concentration at half of the fitted maximal effect.

SMILES	NS1 function inh	Cruzain noTriton	RE007 growth inh	Lassa entry inh	2A StopGo	Marburg entry inh	SARS PLpro yeast	Cruzain Triton
Cc1cc(Cl)cc2c1NC(=O)[C@]21[C@@H]2C(=O)N(Cc3ccccc3)C(=O)[C@@H]2[C@@H]2CCCN21	-9%	?	16%	-8%	-25%	5%&-6%	-4%&0%	-6.2%
CCOc1ccc(CCNC(=O)/C=C/c2ccco2)cc1OCC	-11%	nt	22%	nt	-28%	nt	0%	nt
CN(Cc1cc(=O)n2ccsc2n1)C1CCCCC1	-1%	nt	11%	18%	-20%	-17%	0%	nt
O=C(CCN1CCCC1)c1cccs1	5%	nt	-17%	-1%[46.1 µM]	18%	10%[46.1 µM]	-1%	nt
COc1ccc(CNc2ccc(C)cc2)cc1Br	13%	-18%	-8%	1%	16%	-7%	-37%	-9.6%
CCOC(=O)C1CCCN(CC(=O)Nc2c(C(=O)OC)[nH]c3ccc(C)cc23)C1 (stereo unspecified)	-4%	6%	-12%	?	7%	-24%	-2%	-1.8%
COC(=O)C(Cc1ccc(OC(=O)c2ccc(C(F)(F)F)cc2)cc1)N1Cc2ccccc2C1=O (stereo unspecified)	0%	?	-29%	10%	23%	?	0%	-3.1%
N=c1c2c(ncn1CCCO)Oc1cc(O)ccc1C2c1ccccc1 (stereo unspecified)	2%	nt	7%	nt	-7%	nt	-1%	nt
Cc1c(NS(=O)(=O)c2cccc([N+](=O)[O-])c2)c(=O)n(-c2ccccc2)n1C	2%	nt	1%	?	-10%	-9%	0%	nt
CC(=O)c1ccc(NC(=O)C(C)O/N=C(\N)c2ccccc2)cc1 (stereo unspecified)	nt	nt	-3%	-5%	0%	-5%	-1%	nt
Cc1cc(C)n2nc(SCC(=O)Nc3ccccc3)nc2n1	1%	3%	1%	-2%&8%[46.1 µM]	-10%&-10%	?	0%	-1.8%
CCc1nnc(NC(=O)c2cc(OC)c(OC)cc2[N+](=O)[O-])s1	-6%	nt	-3%	?	5%	-6%[46.1 µM]	1%	nt
O=c1cc(-c2ccccc2)nc2nc[nH]n12	0%	-5%	35%	9%	24%	19%	2%	1.8%
CCC(C)Oc1ccccc1C1CC(=O)NC2=C1C(=O)CCC2 (stereo unspecified)	-4%	5%	10%	?	-12%	?	-1%	1.3%
O=C(NCCC1=CCCCC1)C1CCCN(S(=O)(=O)c2cnc[nH]2)C1 (stereo unspecified)	?	5%	-2%	nt	-5%	nt	0%	1.3%
O=C(Cn1cnc2c(nnn2Cc2ccc(Cl)cc2)c1=O)N1CCN(c2ccccc2)CC1	-53%	nt	5%	nt	?	nt	1%	nt
O=C(NCCN1CCOCC1)c1cc(-c2cccs2)on1	3%	?	6%	37%[14.3 µM]	52%[activator]	0%	-2%	-8.7%
CCOC(=O)c1sc2nc(SCC#N)n(CC3CCCO3)c(=O)c2c1C (stereo unspecified)	5%	-13%	3%	?	-1%	?	1%	-0.4%
CC(=O)NCCCOc1ccc([N+](=O)[O-])cc1Cl	4%	nt	7%	nt	30%[activator]	nt	0%	nt
COc1cc(-c2nc(-c3ccccc3)c(-c3cc([N+](=O)[O-])ccc3C)[nH]2)cc(OC)c1OC	?	?	-7%	?	-25%	?	4%	-5.4%
CCN(CC)c1ccc(/C=N/N2CCN(Cc3ccc(C)cc3)CC2)c(O)c1	-1%	-7%	1%	-4%	7%	-14%	-4%	-1.0%
COC(=O)CSc1ccsc1C(=O)O	nt	nt	15%	3%[46.1 µM]	-3%	4%[46.1 µM]	2%	nt
Cc1ccc(-c2nc3ccccc3c(=O)n2-c2cccnc2)cc1	0%	12%	5%	-3%	-27%	0%	-19%	-2.4%
COC(=O)c1cccc(NC(=O)Nc2ccccc2OC)c1	-8%	nt	-10%	2%	34%[activator]	?	-4%	nt
CNC(=O)c1[nH]cnc1C(=O)NCC(=O)OC(C)(C)C	4%	nt	19%	nt	-2%	nt	3%	nt
N#CC1(c2cccc(Br)c2)C(=O)Nc2ccccc21 (stereo unspecified)	nt	nt	13%	5%	-2%	0%[46.1 µM]	nt	nt
Cn1nc(C(=O)NCCc2ccc(Cl)cc2)c2c1-c1ccccc1S(=O)(=O)C2	9%	nt	-6%	nt	0%	nt	6%	nt
CN(C)c1nc(=S)nc(NCc2ccccc2)[nH]1	nt	nt	-3%	9%	-9%	20%[46.1 µM]	2%	nt
CC(C)N1CCN(CC#Cc2ccccc2)CC1CCO (stereo unspecified)	0%	nt	-2%	nt	6%	nt	1%	nt
O=C(Nc1cccc(-c2nnc(-c3ccco3)o2)c1)C(c1ccccc1)c1ccccc1	-66%	-10%	6%	?	-2%	?	-3%	2.9%
Cc1ccc(NC(=O)c2sccc2C)nc1	-4%	nt	?	nt	43%[activator]	nt	-13%	nt
Cc1cccc(C)c1NC(=S)N(CCN1CCCCCC1)Cc1ccco1	nt	nt	-30%	-16%	-5%	?	2%	nt
COc1ccc(N2CC(C(=O)NCCCN3CCOCC3)CC2=O)cc1 (stereo unspecified)	1%	-5%	9%	?	18%	-22%	-14%	8.1%
CCCSc1nnc(CSc2ncccn2)n1C	nt	nt	-3%	?	8%	1%	3%	nt
COc1ccc(Br)cc1CNC(=O)C1CCN(S(=O)(=O)N2CCC(C)CC2)CC1	-8%	24%	-7%	2%&0%	-4%	7%&-24%	-5%	-1.5%
Cc1cccc(NC(=O)c2cc(S(=O)(=O)N3CCCCCC3)cn2C)c1C	nt	-3%	nt	7%[46.1 µM]	-19%	nt	nt	-5.0%
Cc1nc(Nc2cccc(O)c2)c2c3c(sc2n1)CCC3	-1%	nt	-19%	?	?	?	0%	nt
Cc1ccc(NC(=O)/C=N/OCC(=O)NCc2ccccc2Cl)cc1	-5%	nt	12%	nt	4%	nt	-3%	nt
O=C(CCn1c(=O)c2cccn2c2cccnc21)N1CCN(c2ccc(F)cc2)CC1	nt	-6%	nt	-4%[46.1 µM]	-13%	nt	nt	-3.0%
CC(=O)N1CCc2cc(S(=O)(=O)NC(Cc3ccccc3)C(=O)NCc3ccccc3Cl)ccc21 (stereo unspecified)	nt	-10%	nt	5%[46.1 µM]	9%	-4%[46.1 µM]	nt	-7.1%
Cc1ccc(Nc2sc(C(=O)c3ccc(F)cc3)c(N)c2S(=O)(=O)c2ccc(C)cc2)cc1	nt	?	nt	1.1µM*	-8%	nt	nt	2.2%
O=[N+]([O-])c1ccc(S(=O)(=O)Nc2ccc(-c3csc(-c4ccccc4)n3)cc2)cc1	19%	?	nt	nt	nt	6%	-36%	5.7%
OCCO	nt	2%	-4%	nt	-9%	nt	5%	2.0%
CCOC(=O)c1[nH]c2cc(OC)c(OC)cc2c1NC(=O)CN1CCN(c2ccc(OC)cc2)C(C)C1 (stereo unspecified)	-47%	?	nt	nt	nt	1%	-27%	-7.3%
NC(=O)c1ccc(CN2CCc3ccccc3C2)cc1	11%	nt	37%	20%[46.1 µM]	7%	3%[46.1 µM]	-2%	nt
COc1ccccc1-n1ccnc(SCC(=O)NCc2ccccc2)c1=O	nt	nt	-14%	1%	5%	-2%	19%	nt
CN(C)CCc1cc2c(c3c1ccc1ccccc13)OCO2	-16%	-18%	1%	nt	-5%&-27%	nt	?	-12%
CCc1ccccc1NS(=O)(=O)c1ccc2[nH]cc(C(=O)NCC3CCCO3)c(=O)c2c1 (stereo unspecified)	-33%	nt	-3%	-20%	-5%	12%&-3%	3%	nt
CN(Cc1cn[nH]c1-c1ccc2c(c1)OCO2)C1CCOCC1	-2%	nt	3%	7%[46.1 µM]	7%	19%[46.1 µM]	0%	nt
O=C(COc1cccc(C(F)(F)F)c1)Nc1ccccc1N1CCCCC1	nt	nt	-12%	25%	-46%	8%	-9%	nt
CC(C)CNC(=O)C1CCN(CC2CCCCC2)CC1	-6%	nt	-5%	-3%[46.1 µM]	-16%	19%[46.1 µM]	1%	nt
COc1ccc(CNC(=O)CN(C(=O)c2csnn2)c2cccc3c2CCCC3)cc1	-9%	nt	5%	-1%	-3%	-14%[46.1 µM]	-1%	nt
O=C(CSc1nnc(-c2ccccc2)o1)NC(=O)Cc1ccccc1	nt	nt	-16%	-1%	13%	20%	4%	nt
O=C(CNC(=O)c1cccs1)NCC(=O)OCC(=O)c1ccc([N+](=O)[O-])cc1	nt	nt	-8%	-5%	-1%	-3%[46.1 µM]	0%	nt
CN(C)CCCNC(CC(=O)Nc1cccc([N+](=O)[O-])c1)C(=O)O (stereo unspecified)	-7%	3%	-14%	4%	1%	?	5%	-3.1%
Cc1nn(-c2ccccc2)c(C)c1NC(=O)COC(=O)c1ccc(NC(=O)CC#N)cc1	nt	nt	4%	?	-30%	22%	nt	nt
COc1ccc(NC(=O)c2ccc(-c3ccccc3C(F)(F)F)o2)cc1	-21%	6%	-2%	?	0%	-10%	-1%	-8.1%
NS(=O)(=O)c1ccc(N/N=C/c2ccncc2)cc1	9%	nt	81%	-2%	-10%	-31%[46.1 µM]	-1%	nt
O=C(NCc1cccnc1)c1ccc2c(c1)OCO2	3%	2%	-3%	19%	-13%	26%	1%	4.1%
Cc1ccc(SCC(=O)Nc2ccc(N3CCN(C)CC3)c(F)c2)cc1	-7%	-1%	2%	?	56%[activator]	-1%	-9%	-0.9%

New compounds follow
SMILES	NS1 function inh	Cruzain noTriton	RE007 growth inh	Lassa entry inh	2A StopGo	Marburg entry inh	SARS PLpro yeast	Cruzain Triton
S=c1[nH]ccn1-c1ccc(Cl)cc1	nt	nt	14%	?	-3%	8%	5%	nt
O=C(NCCc1ccccc1)C1=COCCO1	nt	nt	-2%	2%	14%	?	-2%	nt
O=C(Nc1cc(Cl)ccn1)C1(c2ccccc2)CC1(Cl)Cl (stereo unspecified)	-11%	nt	-27%	?	-27%	?	-1%	nt
O=C(O)c1ccc(NC(=S)NC(NC(=O)c2ccco2)C(Cl)(Cl)Cl)cc1 (stereo unspecified)	17%	9%	-3%[3.69 µM]	-4%	-11%	9%	-1%	-5.4%
N#CCCn1cc(/C=N/NC(=O)c2ccncc2)c(-c2ccc(F)cc2)n1	2%	0%	6%	7%	-21%	-9%	-12%	-2.1%

Not a hit list; overall some 4.7% were active at least once.
